KCNQ2 inh – KCNQ2 potassium channel inhibitors, primary screen, cell-based, CHO-K1, FluxOR thallium flux, B-score (AID 2156) | O88943 | 20 min; stronger effect = lower value; only compounds with negative scores are shown here; some inactives read as strong as hits | B-score at 10 µM | 310,000 compounds, 1.1% hits;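 active means fluorescence ratio B-score at most minus 3 library SDs, with starting brightness B-score within 2 library SDs, cut at about -5.5 in these data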
Target sequence (O88943 whole entry, looked up): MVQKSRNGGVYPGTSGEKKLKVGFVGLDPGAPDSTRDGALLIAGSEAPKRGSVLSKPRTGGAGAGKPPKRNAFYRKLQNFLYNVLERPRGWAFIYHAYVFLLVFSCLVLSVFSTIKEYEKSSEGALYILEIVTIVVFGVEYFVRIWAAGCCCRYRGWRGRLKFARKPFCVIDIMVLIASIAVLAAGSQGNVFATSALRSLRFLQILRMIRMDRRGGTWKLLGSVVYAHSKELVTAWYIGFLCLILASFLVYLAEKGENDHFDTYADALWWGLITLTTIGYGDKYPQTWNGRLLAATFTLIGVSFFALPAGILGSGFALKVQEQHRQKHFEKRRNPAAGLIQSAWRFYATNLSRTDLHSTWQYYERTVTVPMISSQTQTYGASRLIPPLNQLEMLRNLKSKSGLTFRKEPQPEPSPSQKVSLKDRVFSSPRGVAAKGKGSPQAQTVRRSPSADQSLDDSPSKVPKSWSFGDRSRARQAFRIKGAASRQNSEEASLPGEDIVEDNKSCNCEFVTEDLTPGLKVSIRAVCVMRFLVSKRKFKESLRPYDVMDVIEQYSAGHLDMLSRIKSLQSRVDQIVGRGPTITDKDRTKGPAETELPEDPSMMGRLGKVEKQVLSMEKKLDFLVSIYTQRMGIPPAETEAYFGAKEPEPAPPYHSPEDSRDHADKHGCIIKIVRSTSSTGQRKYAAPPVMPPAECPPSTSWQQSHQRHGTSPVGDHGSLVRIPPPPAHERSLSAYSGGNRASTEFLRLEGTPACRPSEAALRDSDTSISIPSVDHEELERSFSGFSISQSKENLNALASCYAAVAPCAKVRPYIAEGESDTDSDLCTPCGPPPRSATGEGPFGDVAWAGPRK
KCNQ2 inh baseline – second read-out of KCNQ2 inh, no call of its own (marks repeat the call); B-score; measured here: initial fluorescence intensity artifact check;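 brightness before thallium and not channel activity; 0 = typical well and far values either way flag optical interference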
Starred values were filed as active, the others as inactive; i = inactive.

Preview, 3 compounds:
SMILES	KCNQ2 inh	KCNQ2 inh baseline
CC(=O)c1cccc(NC(=O)CSc2nnc(C(C)N(C)C)n2Cc2ccccc2)c1 (stereo unspecified)	i	-2.2
COc1cccc(/C=N/NC(=O)Cn2cnc3c2c(=O)n(C)c(=O)n3C)c1	i	-1.2
Cc1ccc(Sc2c(C)nn(C(=O)c3cccc(S(=O)(=O)N4CCOCC4)c3)c2C)cc1	-9*	-1.4*

This part in full, from the first entry:
SMILES	KCNQ2 inh	KCNQ2 inh baseline
CC(=O)c1cccc(NC(=O)CSc2nnc(C(C)N(C)C)n2Cc2ccccc2)c1 (stereo unspecified)	i	-2.2
COc1cccc(/C=N/NC(=O)Cn2cnc3c2c(=O)n(C)c(=O)n3C)c1	i	-1.2
Cc1ccc(Sc2c(C)nn(C(=O)c3cccc(S(=O)(=O)N4CCOCC4)c3)c2C)cc1	-9*	-1.4*
O=C(O)c1cc(-c2cc(C(=O)O)c3ccccc3n2)nc2ccccc12	i	1.2
CNC(=S)NNc1nc(C)cc(C)n1	i	-0.54
CCc1ccccc1NNC(=O)CCc1ccccc1	i	0.83
O=C(NC1CC2CCCC(C1)N2Cc1ccccc1)c1ccc([N+](=O)[O-])cc1 (stereo unspecified)	i	1.3
O=C(CC1C(=O)NCCN1Cc1c(F)cccc1Cl)NCCCOc1cccnc1 (stereo unspecified)	i	-0.05
O=C(O)c1sccc1Oc1ccc(NS(=O)(=O)c2ccc(Cl)cc2)cc1	i	1.5
O=C(COc1ccc(Cl)cc1Cl)Nc1ccccc1F	i	1.7
CC(=O)N1CCc2cc(S(=O)(=O)NC(CC(C)C)C(=O)N3CCc4ccccc4C3)ccc21 (stereo unspecified)	i	0.21
O=C(c1cccnc1)N1CCN(C(=O)c2ccco2)CC1	i	0.01
COc1ccc(Nc2nc(-c3ccccc3)nc3ccccc23)cc1S(=O)(=O)N1CCOCC1	i	0.84
CC(=O)c1ccc(NC(=O)C(C)Sc2n[nH]c(-c3cccnc3)n2)cc1 (stereo unspecified)	i	0.14
Cc1ccc(C2C(C(=O)c3ccco3)=C(O)C(=O)N2c2nnc(C)s2)cc1 (stereo unspecified)	i	6
COc1ccccc1OCCn1c(SCC(=O)O)nc2ccccc21	i	-0.78
O=c1[nH]c2ccccc2nc1/C=C(\O)c1cccs1	i	1.5
Cc1cccc([N+](=O)[O-])c1NC(=O)COC(=O)C1CC2CCCC(C1)C2=O (stereo unspecified)	i	2
COc1cccc(-c2nc(CS(=O)(=O)CC(=O)NC3CCCc4ccccc43)c(C)o2)c1 (stereo unspecified)	-10*	0.09*
COc1ccc(C(=O)Nc2ccc(OCC(=O)N3CCOCC3)cc2)c(OC)c1OC	i	-0.3
Cc1ccc(S(=O)(=O)N2CCN(c3nc(C)nc4sc(C)c(C)c34)CC2)cc1	i	0.59
COc1ccc2oc(=O)c(C(=O)NCc3ccccc3)cc2c1	i	-1.1
O=C(COC(=O)c1cnccn1)c1cccc([N+](=O)[O-])c1	i	0.88
COCCn1c(C)cc(C2=NNC(=NC(C)(C)C)SC2)c1C	i	-0.74
Cc1sc2ncnc(N3CCC(C(=O)Nc4nc(-c5cccs5)cs4)CC3)c2c1C	i	5

The final three compounds of the section above lead into the next:
SMILES	KCNQ2 inh	KCNQ2 inh baseline
O=C(COC(=O)c1cnccn1)c1cccc([N+](=O)[O-])c1	i	0.88
COCCn1c(C)cc(C2=NNC(=NC(C)(C)C)SC2)c1C	i	-0.74
Cc1sc2ncnc(N3CCC(C(=O)Nc4nc(-c5cccs5)cs4)CC3)c2c1C	i	5
COc1ccc(/C=N/c2c(-c3ccco3)nc3ccccn23)cc1OC	i	0.13
CCc1ccc(NC(=O)CS(=O)CC(=O)Nc2ccc(N3CCOCC3)cc2)cc1 (stereo unspecified)	i	0.91
CC(Oc1ccc2c3c(c(=O)oc2c1)CCCC3)C(=O)NCC1CCC(C(=O)O)CC1 (stereo unspecified)	i	0.02
Cc1cc(=O)[nH]c(SCc2nc3ccccc3n2Cc2ccccc2)n1	i	0.15
CCC(=O)Nc1ccc(NC(=O)c2c(C)nc3ccccn23)cc1	i	0.07
COc1ccccc1C(=O)C1CCCN(C(=O)CN2CCCCC2=O)C1 (stereo unspecified)	i	-0.84
CSC1=N/C(=C/c2cccnc2)C(=O)N1Cc1ccc(Cl)cc1	i	-0.42
CCSc1nc2ccccc2[nH]1	i	0.34
CCN(CC)c1ccc(NC(=O)c2ccccc2F)cc1S(=O)(=O)Nc1ccccc1OC	i	1.2
c1ccc(-c2csc(Nc3nc(N4CCOCC4)nc(N4CCOCC4)n3)n2)cc1	i	0.31
Nc1ccn(Cc2cccc(F)c2)n1	i	0.54
Cc1cccc(NC(=O)CCS(=O)(=O)c2ccccc2)n1	i	0.01
COc1cccc2sc(N3CCN(c4nc5ccccc5s4)CC3)nc12	i	4.9
Cc1cccc2c1N(CCCOc1ccccc1)C(=O)C2=O	i	0.38
Cc1ccc2cc(C3C(C#N)=C(N)Oc4c3ccc3cccnc43)c(=O)[nH]c2c1 (stereo unspecified)	i	3.7
C/C(=C\C(=O)C(F)(F)F)Nc1ccc(C(F)(F)F)cc1	i	-0.02
CSCCC(Nc1nc2ccccc2s1)C(=O)O (stereo unspecified)	i	-0.95
CC1CCCC(N2CCN(S(=O)(=O)c3ccccc3)CC2)C1 (stereo unspecified)	i	-1.1
Cc1ccc(C(=O)NCC(c2ccc(F)cc2)N2CCOCC2)cc1 (stereo unspecified)	i	0.69
CCOC(=O)c1oc2cccc(OCC(O)CNC(C)C)c2c1C (stereo unspecified)	i	-1.9
Cc1cccc(-n2cc(-c3ccccc3)c3c(N4CCOCC4)ncnc32)c1	-6.7*	-1.6*
O=C(N/N=C\c1ccc(Oc2ccccc2)cc1)c1csnn1	i	0.17
CC1CCN(S(=O)(=O)c2ccc3c(c2)oc(=O)n3CC(=O)N2CCc3ccccc3C2)CC1	i	0.02
C=CCN(C(=O)c1csnn1)C(C(=O)NCc1ccc(F)cc1)c1sccc1C (stereo unspecified)	i	0.52
CSC1=NC2(CCCCC2)CC12C=CC(=O)C=C2	i	-1
New compounds follow.
SMILES	KCNQ2 inh	KCNQ2 inh baseline
O=C(O)c1cn(C2CC2)c2cc(N3CCN(S(=O)(=O)c4ccc5c(c4)OCCO5)CC3)c(F)cc2c1=O	i	0.56
COc1cc(O)c(C(CCN2CCN(c3ccccc3)CC2)c2cc(OC)c(OC)c(OC)c2)c(OC)c1 (stereo unspecified)	i	0.92
O=C(NCc1ccccc1)C(c1ccccc1F)N(CC1CCCO1)C(=O)c1ccccn1 (stereo unspecified)	i	-1
O=C(CN1c2ccccc2Sc2ccccc21)NNC(=O)Nc1cccc(Cl)c1	i	0.53
O=C(/C=C\Nc1cccc(F)c1)c1ccc2c(c1)OCO2	i	0.69
O=c1c2c(-c3cccs3)csc2ncn1/N=C/c1ccc(OC(F)F)cc1	-7.4*	3.4*
COc1cccc(NC(=O)c2cc(-c3ccc(C)o3)nc3ccccc23)c1	i	-1.2
C/C(=N\NC(=O)c1ccc(Cl)cc1)c1cccc(NC(=O)C(C)C)c1	i	0.13
Cc1cc(C)cc(N(C)S(=O)(=O)c2nnc(NC(=O)C(C)C)s2)c1	i	-0.29
COC(=O)C1=C(C)N(CCc2ccc(OC)c(OC)c2)C(=O)C1	i	0.29
Cc1cc(C(=O)NC2CCCc3ccccc32)ccc1[N+](=O)[O-] (stereo unspecified)	i	1.4
O=C(COc1ccccc1[N+](=O)[O-])N1CCN(c2ccccn2)CC1	i	0.02
CCOc1ccc(C(=O)CC(=O)C(=O)NCCc2ccc(OC)c(OC)c2)cc1	i	-1.9
CSc1ccccc1C(=O)N1CCCC(CCC(=O)NCc2ccc(F)c(F)c2)C1 (stereo unspecified)	i	1.8
COc1ccc(/C=C2\C(=O)ON=C2c2ccccc2)cc1	i	0.2
CCS(=O)(=O)C1=NN2C(=N)/C(=C\c3ccc(OC(=O)c4ccco4)c(Br)c3)C(=O)N=C2S1	i	0.57
CNc1oc(Cc2cccc3ccccc23)nc1C#N	i	-0.41
O=C(COC(=O)/C=C/c1ccccc1)Nc1cccnc1Cl	i	-0.12
O=C(Cc1ccc(Cl)cc1)N1CCN(C(=O)c2ccco2)CC1	i	-0.01
O=C(NC1CCCC1)c1cc(=O)[nH]c2ccccc12	i	-0.52
Cc1nc(N2CCOCC2)nc(OCCN2CCOCC2)c1[N+](=O)[O-]	i	0.8
CCCCN(C)Cc1c(C)[nH]c2c(Cl)cccc2c1=O	i	0.51
CCN(CC)c1ccc(C(=O)NNC(=O)c2cccn2C)cc1	i	0.37
O=C(OCCOc1cccc(Cl)c1)c1cc(S(=O)(=O)N2CCCCC2)ccc1N1CCOCC1	i	-1.7
Cc1ccc(NC(=O)C2Oc3ccccc3OC2C)cc1 (stereo unspecified)	i	-1.3

A draw from above in order of molar mass, rising:
SMILES	KCNQ2 inh	KCNQ2 inh baseline
Cc1cc(C(=O)NC2CCCc3ccccc32)ccc1[N+](=O)[O-] (stereo unspecified)	i	1.4
CCN(CC)c1ccc(C(=O)NNC(=O)c2cccn2C)cc1	i	0.37
COc1cccc(NC(=O)c2cc(-c3ccc(C)o3)nc3ccccc23)c1	i	-1.2
O=C(CN1c2ccccc2Sc2ccccc21)NNC(=O)Nc1cccc(Cl)c1	i	0.53
O=C(O)c1cn(C2CC2)c2cc(N3CCN(S(=O)(=O)c4ccc5c(c4)OCCO5)CC3)c(F)cc2c1=O	i	0.56

Looked up above.
In KCNQ2 inh baseline, CCS(=O)(=O)C1=NN2C(=N)/C(=C\c3ccc(OC(=O)c4ccco4)c(Br)c3)C(=O)N=C2S1 has 0.57
In KCNQ2 inh baseline, O=C(CN1c2ccccc2Sc2ccccc21)NNC(=O)Nc1cccc(Cl)c1 has 0.53
In KCNQ2 inh baseline, COc1cc(O)c(C(CCN2CCN(c3ccccc3)CC2)c2cc(OC)c(OC)c(OC)c2)c(OC)c1 (stereo unspecified) has 0.92
In KCNQ2 inh baseline, Cc1ccc(NC(=O)C2Oc3ccccc3OC2C)cc1 (stereo unspecified) has -1.3

Other entries.
SMILES	KCNQ2 inh	KCNQ2 inh baseline
CC(C)c1ccc(N(C(=O)c2ccc3c(c2)OCO3)C2C=CS(=O)(=O)C2)cc1 (stereo unspecified)	i	0.4
Cc1cccc(N(C(=O)c2csnn2)C(C(=O)NC(C)(C)C)c2ccncc2)c1 (stereo unspecified)	i	-0.02
O=S(=O)(c1ccccc1)N1CCc2ccccc21	i	0.75
C(=C/c1nccc2c1[nH]c1ccccc12)/c1ccc2c(c1)OCO2	i	-0.01
O=C(NCCN1CCOCC1)c1csc2c1CCCCC2	i	0.07
CC(=O)Nc1ccc(NC(=O)CSc2nnc(NC(=O)C3CC(=O)N(c4ccc(F)cc4)C3)s2)cc1 (stereo unspecified)	i	0.38
COc1ccc(CCNC(=O)CCS(=O)(=O)c2ccc3c(c2)CCN3C(C)=O)cc1OC	i	2.2
CN1C(=O)CC(Sc2ncccc2C(=O)O)C1=O (stereo unspecified)	i	0.14
CCc1cc(C=NC2CCCCC2)c(O)s1	i	2.1
Cc1ccc(NC2CCCN(C(=O)CCn3nccc3C)C2)cc1C (stereo unspecified)	i	-0.39
COc1cc(/C=C(\C#N)C(=O)NC2CCCCC2C)ccc1OS(=O)(=O)c1ccc(C)cc1 (stereo unspecified)	i	-0.2
CC(C)CCN1C(Nc2ccccc2)=NC[C@@H]1Cc1ccccc1	i	-0.02
CCOC(=O)c1nnn(-c2nonc2N)c1COc1ccccc1	i	1.1
O=S(=O)(NCC(c1ccc2c(c1)OCO2)N1CCOCC1)c1ccccc1 (stereo unspecified)	i	-1.4
COc1cc(CC(=O)NCc2ccc3c(c2)OCO3)cc(OC)c1OC	i	-0.03
CC(=O)c1ccc(NC(=O)c2ccc3nc(-c4ccco4)c(-c4ccco4)nc3c2)cc1	i	-0.37
CC(C)CNC(=S)NNC(=O)c1nn(C)cc1Cl	i	0.28
O=C(NCc1ccccc1)C(c1c(F)cccc1Cl)N(C(=O)c1csnn1)C1CC1 (stereo unspecified)	i	-0.01
CSc1cccc(NC(=O)CSc2nc3ccccc3o2)c1	i	0.34
COc1cc(NC(=O)c2sc3nc(C)nc(N4CCOCC4)c3c2C)cc(OC)c1OC	i	-2.7
CCN(CC)CCN1C(=O)Cn2c(C)c(C)c3cccc1c32	i	-1.5
Cc1ccc(C)c(OCC(=O)NCC(c2ccco2)N2CCCCC2)c1 (stereo unspecified)	i	1.4
CCN(CC)CCOC(=O)c1ccc(NC(=O)C2(c3ccccc3)CCCC2)cc1	i	-0.82
O=C(Nc1nnc(SCc2ccccn2)s1)C1CC(=O)N(c2ccccc2)C1 (stereo unspecified)	i	0.75
CCOC(=O)c1ccc2nc(C)c(CC)c(Cl)c2c1	i	-0.91
Remaining list, next part.
SMILES	KCNQ2 inh	KCNQ2 inh baseline
CCCc1nn(C)c2c(=O)[nH]c(-c3cc(S(N)(=O)=O)ccc3OCC)nc12	i	0.02
CCOc1ccc(S(=O)(=O)Nc2cccc(C(=O)NCC(c3ccco3)N(C)C)c2)cc1 (stereo unspecified)	i	0.57
COC(=O)C(C)Sc1nc2c([nH]c3ccccc32)c(=O)n1C (stereo unspecified)	i	0.06
CCOCCCN1CN(Cc2ccco2)CNC1=S	i	-0.05
Cc1ccccc1NC(=S)N(C)C1(c2ccccc2Cl)CCCCC1=O (stereo unspecified)	i	-0.43
Cc1cccc(OCc2nc(-c3ccc(Br)o3)no2)c1	i	1
O=C(COc1ccccc1)Nc1ccccc1N1CCN(c2ccc(F)cc2)CC1	i	-1.7
Cc1cccc(C(=O)Nc2ccccc2N2CCN(c3ccc(F)cc3)CC2)c1	i	-0.54
Cc1cccc(C)c1NS(=O)(=O)c1ccc2c(c1)C(=O)c1ccccc1C2=O	i	-1.1
CCCOc1ccccc1C(=O)NC(CO)C(=O)O (stereo unspecified)	i	1.4
CC1Cc2nc(SCC(=O)NCC3CCCO3)n(-c3ccc(F)cc3)c(=O)c2S1 (stereo unspecified)	i	0.39
O=C(NC1CCCc2ccccc21)C1CCN(c2nnc(-n3cccc3)s2)CC1 (stereo unspecified)	i	-0.67
O=C(CSc1nnnn1-c1cccc2c1CCCC2)NC1CCCC1	i	-0.1

High-throughput results from PubChem.

Only part of the results is shown, so the mix of outcomes need not match the whole.
